High-throughput results (PubChem BioAssay)
Bead autofluor: flagged as autofluorescent in microsphere protease counterscreen; compound autofluorescence counterscreen, microsphere flow cytometry; stronger effect = higher value; 360,000 compounds, 3.1% hits; fluorescence intensity (no concentration beside the values);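 active means at least 3 SD above the mean of all compounds, about 16000 in these data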;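 further: 100 nL of 1 mM stock went into each well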
BJeLR lethal: kills HRASV12-expressing BJeLR cells | BJeLR (HRASV12) viability, CellTiter-Glo ATP luminescence, 48 h; reference of the scale not given here | 300,000 compounds, 0.17% hits | inhibition, % (test concentration not listed) | AID 1554;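 active means replicate mean above 50%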;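 further: 50 nL library stock added to about 25 µL; numbers are from one replicate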
Mtb hypoxia rep: reduces hypoxia-regulated biosensor signal in M. tuberculosis. M. tuberculosis hypoxia-regulated fluorescent reporter, fluorescence. fluorescence inhibition, % (no concentration beside the values). 300,000 compounds, 0.1% hits;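 active means 35 to 45% if threefold the growth effect, above 45% if 1.5-fold the growth effect; inactive means the rest, general growth blockers included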;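 further: wells of about 50 µL received 100 nL stock; 0% = vehicle wells and 100% = reference inhibitor wells; whole bacteria with a GFP reporter of the hypoxia response; strong numbers were not always called active; many hits fall short of the cut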
PrP 5UTR inh: suppresses PrP 5' UTR mRNA reporter expression. cell-based PrP 5' UTR mRNA reporter, plate reader. inhibition, % (concentration not given with the values). 340,000 compounds, 0.35% hits;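 active means every replicate at 50% or more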;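 further: 0 = median of the neutral control wells; tested in H4 reporter cells; numbers are from one replicate; inactives centre near -14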
Sa RN4220 lethal: kills Staphylococcus aureus RN4220; inhibition, % (no concentration beside the values); AID 1259311; S. aureus RN4220 growth, OD600, 16 h; 330,000 compounds, 0.33% hits;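 active means z-score of -3 or lower and OD600 up to 0.18 on both plates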;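 further: plate controls were untreated cells for no effect and reference antibiotic for full effect; stock transfer was 100 nL into about 80 µL; one replicate is shown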
ugtP null kill: kills S. aureus RN4220 lacking UgtP; S. aureus RN4220 ugtP deletion, OD600 growth, 16 h; some inactives read as strong as hits; growth inhibition, % (no concentration beside the values); 330,000 compounds, 0.54% hits; AID 1259309;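 active means z-score under -3 and OD600 up to 0.15 on both plates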;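 further: plate controls were untreated wells for no effect and antibiotic for full effect; wells of about 80 µL received 100 nL stock; the first replicate is given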
Mtb hypoxia rep growth: further read-out of Mtb hypoxia rep, marked with its call; growth inhibition, %; measured here: M. tuberculosis growth (absorbance);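 0% = vehicle and 100% = reference antibiotic; read after six days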
An asterisk follows results filed as active; . = not tested or not shown.

compound	Bead autofluor	BJeLR lethal	Mtb hypoxia rep	Mtb hypoxia rep growth	PrP 5UTR inh	Sa RN4220 lethal	ugtP null kill
COc1ccccc1Nc1nc(N2CCCC2)nc(N2CCOCC2)n1	3738	3	8	-3	-18	4.6	0
CC(C)(C)C(=O)Nc1ccc(N2CCN(S(C)(=O)=O)CC2)cc1	2467	4	6	-4	-6	2.8	4
COC(=O)CSc1nc(C(C)C)nc2ccccc12	9233	-2	4	-5	-5	6.8	8
O=C(Cn1c(-c2ccc(Cl)cc2)noc1=O)N1CCN(c2ccccc2F)CC1	10006	7	4	11	-36	4.2	0
O=C1c2ccccc2NC(c2ccccc2Br)N1CCCN1CCOCC1 (configuration not stated)	2383	-3	12	3	-9	1.3	4
CC1C(=O)c2ccccc2CC1C(=O)O (configuration not stated)	3801	.	12	15	-22	1.7	5
COc1ccc(C=NNC(=O)CCc2n[nH]c(=O)[nH]c2=O)cc1OC	.	.	4	1	.	3.4	0
Cc1cccc(NC(=S)NCc2ccncc2)c1C	1894	7	8	4	-10	2.8	13
CCc1nc2ccccc2c(C(=O)OCC(=O)N(CC(C)C)c2c(N)n(Cc3ccccc3)c(=O)[nH]c2=O)c1C	5997	.	-2	-4	-5	-4.7	-1
COc1cc(/C=N/n2c(COc3ccccc3)n[nH]c2=S)cc(OC)c1OC(C)=O	3684	18	.	.	-11	.	.
CC[C@H](C)[C@H](NC(N)=O)C(=O)Nc1ccccc1F	3023	1	9	-4	7	2.1	5
CC(=O)NCC(=O)N(c1ccccc1)C1(C(=O)NC2CCCCC2)CCCCC1	4531	8	10	2	-12	0.3	-1
Cc1cc(OCC(=O)NCc2nc(-c3ccccc3)no2)c(C)cc1Br	3182	-5	-21	-5	-11	0.9	-6
CCOC(=O)CNC(=O)c1cnn2cccnc12	5899	2	.	.	-6	1.9	2
COc1ccc2c(COC(=O)CNC(=O)C34CC5CC(CC(C5)C3)C4)cc(=O)oc2c1	8431	-7	4	1	-20	6.1	-6
CN(C(=O)c1ccc2c(=O)n3c(nc2c1)CCCCC3)c1ccccc1	2429	15	.	.	-3	11	8
COc1ccc(CNC(=O)CN(C(=O)c2snc(C(N)=O)c2N)c2ccc(OC)c(OC)c2)cc1	3862	5	-13	1	5	2.7	-2
COc1ccccc1-n1c(SCC(=O)N2CCCCC2)nnc1-c1ccccc1O	8341	-10	21	9	2	8.9	3
CC(C(=O)NCCS(=O)(=O)c1ccc(Cl)cc1)S(=O)(=O)c1ccccc1 (configuration not stated)	1968	6	-2	-11	-4	4.0	3
OC(CCc1ccncc1)c1ccccc1 (configuration not stated)	4231	-9	4	1	-8	2.2	3

Record cards, from the list above. Order of values: Bead autofluor	BJeLR lethal	Mtb hypoxia rep	Mtb hypoxia rep growth	PrP 5UTR inh	Sa RN4220 lethal	ugtP null kill
COc1ccc(CNC(=O)CN(C(=O)c2snc(C(N)=O)c2N)c2ccc(OC)c(OC)c2)cc1 is listed as 3862	5	-13	1	5	2.7	-2
O=C(Cn1c(-c2ccc(Cl)cc2)noc1=O)N1CCN(c2ccccc2F)CC1 is listed as 10006	7	4	11	-36	4.2	0
COc1ccccc1-n1c(SCC(=O)N2CCCCC2)nnc1-c1ccccc1O is listed as 8341	-10	21	9	2	8.9	3

The results go on.
compound	Bead autofluor	BJeLR lethal	Mtb hypoxia rep	Mtb hypoxia rep growth	PrP 5UTR inh	Sa RN4220 lethal	ugtP null kill
CC(C)(C)[C@@H]1C=C(C(=O)NC2CC2)O[C@H](OCc2ccc(CO)cc2)C1	3538	0	.	.	-25	.	.
CN(C)S(=O)(=O)c1ccc(S(=O)(=O)N2CCCC(C(=O)NC3CCCC3)C2)cc1 (configuration not stated)	5115	13	-11	-8	0	0.0	2
O=c1c2ccccc2c(/C=N/NS(=O)(=O)c2ccccc2)c(O)n1-c1ccccn1	2128	1	.	.	-8	.	.
CCSC1=N/C(=C\c2ccc(C(=O)O)cc2)C(=O)S1	4789	0	15	7	-22	2.8	6
Cc1ccnc(NS(=O)(=O)c2ccc(NC(=O)c3ccc(S(=O)(=O)N4CC(C)OC(C)C4)cc3)cc2)n1 (configuration not stated)	2520	-2	15	17	-25	6.3	-3
OC(CN1C2=NCCN2c2ccccc21)c1ccc2c(c1)OCO2 (configuration not stated)	2441	0	.	.	1	6.8	-2
CN(C(=O)Nc1ccccc1)C1CCCCC1	5352	1	-12	-7	-55	5.3	5
O=C(COC(=O)[C@H](Cc1ccccc1)NC(=O)c1cccs1)Nc1ccccc1C(F)(F)F	2501	4	16	11	-33	0.1	2
CCOC(=O)c1cnc2c(c(C3CC3)nn2C)c1N1CCOCC1	5305	1	-12	0	-28	0.0	-3
COP(=O)(OC)c1nc(-c2ccccc2)oc1N1CCOCC1	2113	12	4	1	-22	3.0	12
CCOC(=O)C(=O)N(Nc1ccc(C)cc1)c1ccc(C)cc1	5621	0	2	-3	-56	4.2	7
CCCNC(=O)COc1coc(CN2CCN(c3ccccc3)CC2)cc1=O	6503	-5	-2	6	-21	6.5	11
Cc1nc2nc(CC(=O)O)[nH]n2c(=O)c1[N+](=O)[O-]	4245	2	1	1	-83	2.0	6
Cc1ccc(N2C(=O)Nc3ccccc3C2(O)C(=O)NCCCOC(C)C)cc1C (configuration not stated)	3759	-12	9	0	-17	0.6	9
CN(C)S(=O)(=O)c1cccc(-c2nn(-c3ccccc3)cc2/C=C2\SC(=S)NC2=O)c1	2020	.	13	5	-7	-3.2	14
CCOc1cc2[nH]c(=S)n(Cc3ccc(C(=O)NCCN(CC)CC)cc3)c(=O)c2cc1OCC	4410	3	15	11	-18	4.1	17
Cc1cc(C)c2c(CC(=O)Nc3nccs3)coc2c1	1993	-3	.	.	-5	0.7	7
Nc1cc(N)nc(SCCOc2ccccc2F)n1	3723	-2	13	6	-43	2.3	0
CC1=C(C(=O)OCC2CCCO2)C(c2ccsc2)C2=C(CCCC2=O)N1 (configuration not stated)	3418	1	1	-1	-12	8.1	0
O=C(O)c1ccc(Cl)c(S(=O)(=O)Nc2ccc3cn[nH]c3c2)c1	5646	-5	8	5	-21	2.0	-1

Further records
compound	Bead autofluor	BJeLR lethal	Mtb hypoxia rep	Mtb hypoxia rep growth	PrP 5UTR inh	Sa RN4220 lethal	ugtP null kill
CCc1nc(Cl)c(C#N)c2c1CCCC2	2424	-3	9	-1	11	4.0	10
Cc1cc(C)cc(NC(=O)Cc2ccc(-n3cccc3)cc2)c1	2734	-3	8	-2	-4	-0.9	4
Cc1oc(-c2cccs2)nc1CN1CCC(CO)(CCOc2ccccc2)CC1	3633	19	17	10	-24	6.6	0
C=CCN1C(=O)CSC1=Nc1ccc(NC(C)=O)cc1	4120	-2	11	-3	-4	4.3	10
Cc1ccc(S(=O)(=O)NC2CCCC2)cc1C(N)=O	6254	1	6	-2	-28	1.0	-1
CC1CN(c2ccc(Cl)cc2[N+](=O)[O-])CCN1S(C)(=O)=O (configuration not stated)	4222	-6	16	6	-1	4.8	2
O=C(CNc1ccc(Cl)c(C(F)(F)F)c1)N1CCN(S(=O)(=O)c2ccccc2)CC1	3989	.	6	6	-13	6.7	-10
O=C(CN(C(=O)c1csnn1)c1cccc2c1CCCC2)NCc1ccc(F)cc1	5154	-14	0	2	-14	-4.1	0
O=C1NC(Cc2c[nH]c3ccccc23)C(=O)N1CCOc1ccccc1 (configuration not stated)	9204	-4	9	12	-26	3.5	-8
O=S(=O)(Nc1nc2ccccc2nc1-[n+]1cccc(N=C([O-])c2ccc(Cl)cc2)c1)c1ccccc1	.	3	5	9	.	1.1	-2
O=C(O)c1ccc(NN=Cc2cn(Cc3ccc(F)cc3)c3ccccc23)cc1	.	.	5	-2	.	-4.5	9
CC1(C)Cc2c(sc(N)c2C#N)C(C)(C)N1	4245	-4	16	11	-15	6.0	12
O=C(O)c1cc([N+](=O)[O-])c(N2CCCC2)c([N+](=O)[O-])c1	2511	11	3	-5	-15	2.3	5
Cc1cc(-c2nnc(CCC(=O)N(C)Cc3cccc4ccccc34)o2)no1	7878	1	.	.	6	.	.
CCOC(=O)Cc1csc(NN=Cc2ccc(N(C)C)cc2)n1	.	.	4	2	.	4.6	-10
O=C(CNC(=O)c1ccccc1F)N/N=C/c1cc(Br)ccc1OC(=O)/C=C/c1ccco1	2728	10	.	.	-1	.	.
CC(/C=N/NC(=O)c1ccncc1)=C\c1ccccc1	7303	9	.	.	-50	.	.
CCc1nnc(N/N=C/c2ccccc2Cl)n1N	5720	1	.	.	-26	.	.
Cc1ccc(NC(=O)CN2CCN(C(=O)c3ccco3)CC2)cc1	3693	-5	-11	-5	-4	4.9	5
CCc1c(C(=O)Nc2ccc(S(=O)(=O)N3CCOCC3)cc2)csc1C	10113	-8	3	7	-38	0.6	-3

The list goes on:
compound	Bead autofluor	BJeLR lethal	Mtb hypoxia rep	Mtb hypoxia rep growth	PrP 5UTR inh	Sa RN4220 lethal	ugtP null kill
CCc1nc2ccccc2c(NC(=O)CN2CCC(C)CC2)c1C	4813	0	.	.	-8	1.8	3
O=C(Nc1cccc(S(=O)(=O)N2CCCCC2)c1)C1CCCN1S(=O)(=O)c1ccccc1F (configuration not stated)	4256	.	11	0	-13	1.5	0
CC(C)CCC1(CCO)C(=O)NC(=S)NC1=O	2879	.	0	3	2	1.2	0
COC(=O)C1(c2ccccc2)NC(c2cccs2)C2C(=O)N(c3ccccc3)C(=O)C21 (configuration not stated)	3278	7	4	8	-24	-11	0
C(=NNc1nc(N2CCCCC2)nc(N2CCCCC2)n1)c1c[nH]c2ccccc12	.	.	3	11	.	-2.9	-2
Cc1ccc(C=NNC(=O)NC2CCCCC2)o1	.	.	.	.	.	3.0	-5
Cc1cc(CN(C)C(=O)C2CCC(=O)N(CCc3cccc(F)c3)C2)on1 (configuration not stated)	5260	-1	-3	-4	-12	0.6	3
CC(=O)Nc1ccc2nc(C3CC3)n(Cc3ccc(Cl)cc3)c(=O)c2c1	4672	.	1	4	-99	12	18
CCOC(=O)c1[nH]c2ccccc2c1NC(=O)CC(C)C	4444	1	4	0	-12	1.9	-11
O=C(NCCCn1ccnc1)c1ccc(C(F)(F)F)cc1	3529	8	17	0	-6	4.6	11
Cc1nn(C)c(C)c1CNC(=O)Nc1ccc2c(c1)OCO2	4806	3	.	.	-42	.	.
COc1ccc(C(=O)N2CCC(n3nccc3NC(=O)C3CCOC3)CC2)cc1 (configuration not stated)	6052	-7	-1	-1	-7	2.0	1
CCC(C(=O)N1CCN(C(=O)c2ccco2)CC1)n1sc2ccccc2c1=O (configuration not stated)	5356	-2	-1	-1	-2	3.0	0
O=C(N/N=C/c1cccs1)C(=O)N1CCCC1	4345	-3	.	.	-28	.	.
CCOc1ccc(C=NNC(=O)CN2CCCCCCC2)cc1	.	.	12	5	.	9.3	-1
C1CNC(C23CC4CC(CC(C4)C2)C3)=N1	4506	2	-2	-4	-8	2.0	5
COc1ccccc1Nc1nc(-c2ccc3c(c2)NC(=O)CO3)cs1	2397	8	12	3	-38	7.0	5
Nc1nnc(-c2ccc(Cl)cc2)s1	8045	8	14	12	-39	5.6	0
O=C(CCNC(=O)c1ccc(Cl)cc1)Nc1c(F)c(F)cc(F)c1F	2027	0	18	-5	-59	8.0	13
O=C(CSc1ccncc1)Nc1ccc(S(=O)(=O)Nc2nccs2)cc1	3379	-1	.	.	-24	4.1	6

Continuation.
compound	Bead autofluor	BJeLR lethal	Mtb hypoxia rep	Mtb hypoxia rep growth	PrP 5UTR inh	Sa RN4220 lethal	ugtP null kill
CC1CC(C)CN(S(=O)(=O)N2CCC(C(=O)NCc3ccco3)CC2)C1 (configuration not stated)	4225	-5	3	5	-20	-4.8	6
O=C(Nc1ccccc1Oc1cccnc1)C1CCCN(Cc2ccc(F)cc2)C1 (configuration not stated)	5991	8	6	15	-3	0.7	4
CN1C(=S)SC(/[N+]([O-])=C\c2ccccc2F)C1(C)C (configuration not stated)	4174	12	4	4	-13	-1.1	2
COc1ccc(/C(=N\O)c2nccc3cc(OC)c(OC)cc23)cc1OC	4024	5	.	.	-25	.	.
COc1ccccc1CNC(=O)C1CCN(C(=O)c2sccc2-n2cccc2)CC1	4917	-5	5	0	6	2.4	7
Cc1csc(NC(=O)c2ccc(Cn3nc(C)c(Br)c3C)o2)n1	4939	17	12	2	-25	-3.3	-22
O=S(=O)(NCCOCC(F)(F)C(F)F)c1ccc2oc3ccccc3c2c1	4251	1	.	.	-10	4.0	-6
